Cruzain inh Det: cruzain (T. cruzi) inhibition with detergent. purified cruzain, Z-FR-AMC fluorescence, 0.01% Triton. Potency, µM, for inactives: max response, negative = inhibition, usual class: inhibitors. 0.43% of 200,000 active. AID 1478;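 note: plate controls were neutral wells for no effect and buffer without enzyme for full effect; nearly all actives have a fitted effect of over 40% in size; top concentration of the series not given in the record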
Target sequence (P25779 123-467 limits assumed): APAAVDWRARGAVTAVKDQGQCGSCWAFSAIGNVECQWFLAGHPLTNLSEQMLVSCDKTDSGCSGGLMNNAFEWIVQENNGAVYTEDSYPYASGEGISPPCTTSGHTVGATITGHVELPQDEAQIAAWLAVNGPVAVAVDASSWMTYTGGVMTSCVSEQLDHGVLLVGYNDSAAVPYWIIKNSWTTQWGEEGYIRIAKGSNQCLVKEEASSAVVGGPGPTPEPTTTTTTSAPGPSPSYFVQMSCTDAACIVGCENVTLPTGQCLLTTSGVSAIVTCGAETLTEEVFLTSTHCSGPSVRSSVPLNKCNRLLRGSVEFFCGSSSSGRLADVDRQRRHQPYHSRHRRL
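Sodium acetate buffer (100 mM, pH 5.5) containing 5 mM DTT and 0.01% Triton X-100 hosted 1.5 nM cruzain and test compound for 15 min at room temperature. Cleavage of 2 uM Z-FR-AMC was then tracked by fluorescence.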
MARV entry inh: inhibitors of Marburg virus binding or cell entry; 1.8% of 300,000 active; Potency, µM (titrated, usually from 37.8 µM), for inactives: at the highest dose activity change, negative = inhibition, actives largely listed as inhibitors; Marburg virus pseudotyped entry inhibition, cell reporter; control for the full effect not named in the record; about a third of the inactives were read at about 46 µM; AID 540276; active = well fitted inhibition curve with a large enough effect; inconclusive = small, poorly fitted or top-dose-only effect, or effect the other way; inactive = flat fitted curve, though single readings scatter; tested in HEK293 cells; about a fifth of its hits are not listed in these tables; note: % is set by controls: 0 for no effect and ±100 for the full control effect; luciferase read-out
RE007 growth inh: less growth of the S. pombe RE007 Vpr strain | Potency, µM (top dose mostly 92.2 µM), without a hit: at the top dose activity change, negative = less growth | AID 651644 | 0.21% of 360,000 active | S. pombe RE007 Vpr strain, BacTiter-Glo ATP luminescence, 24 h; control for the full effect not named in the record; active = well fitted falling curve with a large enough effect; inconclusive = small, poorly fitted or top-dose-only effect; inactive = no such curve, though single readings can be large or run the other way;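 note: % is set by controls: 0 for no effect and ±100 for the full control effect; nearly all actives have a fitted effect of over 50% in size; the assay follows cell death caused by Vpr and the record does not say whether a fall means rescue or toxicity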
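Fission yeast strain RE007, carrying one chromosomally integrated HIV-1 vpr copy, was seeded at OD 0.01 in PMG+AL medium with 23 nL pinned compound. After 24 h at 30 °C and 99% humidity, viability was read by BacTiter-Glo luminescence.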
Cruzain inh noDet: blocks cruzain activity in detergent-free assay. purified cruzain, Z-FR-AMC fluorescence, no detergent. Potency, µM, inactives show max response, negative = inhibition, actives largely listed as inhibitors. P25779. AID 1476. 2.3% of 200,000 active;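 note: plate controls were enzyme without inhibitor for no effect and buffer without enzyme for full effect; nearly all actives have a fitted effect of over 40% in size; top concentration of the series not given in the record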
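Detergent-free condition (0.00005% Triton X-100) in acetate buffer pH 5.5 with DTT. 1.5 nM enzyme and compound were pre-mixed 15 min, then 2 uM Z-FR-AMC substrate added; reaction progress from fluorescence change between first and third reads (60 s).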
Lassa entry inh: blocks Lassa virus binding to or entry into cells. 1.2% of 300,000 active. Potency, µM (top dose mostly 37.9 µM), inactives show top-dose activity change, negative = inhibition, hits mostly inhibitors. AID 540256. Lassa virus pseudotype entry inhibition, cell reporter; control for the full effect not named in the record; active means well fitted inhibition curve with a large enough effect; inconclusive means small, poorly fitted or top-dose-only effect, or effect the other way; inactive means flat fitted curve, though single readings scatter; tested in HEK293 cells; note: % is set by controls: 0 for no effect and ±100 for the full control effect; nearly all actives have a fitted effect of over 50% in size; luciferase read-out
2A StopGo: FMDV 2A StopGo reporter, luciferase signal; AID 1159524; 1.2% of 410,000 active; human cells with a luciferase reporter of 2A StopGo recoding; control for the full effect not named in the record; Potency, µM (top dose mostly 57.9 µM), inactives show at the top dose signal change, negative = less light; active = well fitted falling curve with a large enough effect; inconclusive = small, poorly fitted or top-dose-only effect; inactive = no such curve, though single readings can be large or run the other way; tested in HEK293T cells; note: % is set by controls: 0 for no effect and ±100 for the full control effect; nearly all actives have a fitted effect of over 45% in size; luciferase light after 4 h
SARS PLpro yeast: SARS-CoV PLP inhibition in yeast | 0.19% of 330,000 active | Potency, µM (titrated, usually from 32.9 µM), for the others: at the top dose activity, positive = growth rescue | S. cerevisiae expressing SARS-CoV PLpro, growth rescue; control for the full effect not named in the record | AID 485353; active means well fitted rising curve with a large enough effect; inconclusive means small, poorly fitted or top-dose-only effect; inactive means no such curve, though single readings can be large or run the other way; note: 0% is about no effect; nearly all actives have a fitted effect of over 55% in size; growth read by luminescence after 48 h
NS1 function inh: blocks influenza NS1 protein function. Potency, µM (titrated, usually from 46.1 µM), without a hit: top-dose activity, positive = more growth. S. cerevisiae slowed by influenza A NS1, growth recovery by OD600. 0.4% of 270,000 active; active means well fitted rising curve with a large enough effect; inconclusive means small, poorly fitted or top-dose-only effect; inactive means no such curve, though single readings can be large or run the other way; note: nearly all actives have a fitted effect of over 50% in size
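Read-out: OD600 growth recovery of NS1-expressing budding yeast. Cells grown overnight at 30C in -URA glucose medium, washed, resuspended and diluted 1:100 in 2% galactose assay medium, pH 6.0. Same strain lacking NS1 served as positive control.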
* marks the source's active call; other numbers are inactive results; ? = inconclusive; · = no result given; [ ] = remark or other dose. Unless noted, calls come from the whole dose curve; as a rule, active = well fitted curve in the direction sought with a large enough effect; inconclusive = small, poorly fitted or top-dose-only effect, or another doubt; inactive = no such curve, though single readings can be large; an effect the other way counts as inactive or inconclusive. Potency is the fitted concentration of half-maximal effect. Compounds were not picked by outcome, and some 4.8% of all compounds hit somewhere here.

structure	MARV entry inh	NS1 function inh	Cruzain inh noDet	Cruzain inh Det	SARS PLpro yeast	RE007 growth inh	2A StopGo	Lassa entry inh
Clc1ccc(-c2cnc(Oc3ccccc3)nc2)cc1	?	-4%	-3%	-2.2%	7%	11%	-8%	?
CCCn1c2c(c(O)c(C(=O)Nc3nccs3)c1=O)CCCC2	11%	·	?	-8.6%	5%	-12%	2%	-4%
COC(=O)N1CCN(c2ccc(C)cc2)C(C)C1 (stereo not drawn)	25%[46.1 µM]	1%	·	·	1%	9%	-8%	23%[46.1 µM]
COCCCNC(=O)/C(C#N)=C/c1c(N2CCN(C)CC2)nc2c(C)cccn2c1=O	?	10%	·	·	-1%	-9%	-9%	0%
COCCCNC(=O)/C(C#N)=C/c1cc(C)[nH]c1C	-18%[46.1 µM]	5%	·	·	-1%	-11%	26%	?
CCOc1ccc(/C=C2\SC(N3CCCCC3)=NC2=O)cc1	·	-13%	·	·	-1%	6%	3%	·
N#Cc1c(-n2ncnc2-c2ccccc2C(F)(F)F)sc2c1CCCCC2	·	·	3%	-0.1%	·	·	0.35µM*	?
CC(/C=N/n1c(-c2cc(C)[nH]n2)n[nH]c1=S)=C\c1ccccc1	-26%	14%	-5%	-8.1%	1%	6%	-22%	2%
Cc1cc(C)n(CCNC(=O)CCc2nnc(CCc3ccccc3)o2)n1	·	1%	·	·	-1%	2%	-3%	·
Cc1ccc(S(=O)(=O)N2CCCC2C(=O)Nn2cnnc2)cc1 (stereo not drawn)	19%	2%	-3%	3.8%	-8%	-1%	·	1%
O=C(CCCN1C(=O)/C(=C\c2cccs2)SC1=S)NNC(=O)c1cccnc1	-25%	·	·	·	2%	13%	-11%	-17%[46.1 µM]
C#Cc1ccc([C@H]2C=C(C(=O)N3CCN(Cc4ccccc4)CC3)O[C@@H](OCc3ccc(CO)cc3)C2)cc1	·	13%	·	·	-1%	-28%	-28%	·
O=C(c1ccccc1)c1ccc(OC(=O)N2CCOCC2)cc1	12%	-20%	8%	3.9%	1%	7%	24%	5%
CC(C)CNC(=O)NC(=O)COC(=O)c1ccccc1Sc1ccc(C(F)(F)F)cc1[N+](=O)[O-]	?	0%	-2%	-12%	11%	18%	0%	-7%
CCCCC(Sc1nc(N)c(NC(=O)c2ccco2)c(=O)[nH]1)C(=O)O (stereo not drawn)	·	17%	·	·	3%	14%	-12%	·
COCCCNC(=O)C(=O)Nc1ccc2c(c1)N(S(=O)(=O)c1cccs1)CCC2	-32%	·	·	·	-2%	0%	2%	?
Cn1ccnc1SCC(=O)NC1CCCCC1	2%	5%	-6%	0.6%	4%	13%	13%	10%
N#Cc1c(C(F)(F)F)cc(Cc2ccccc2)nc1SCC(=O)NCC(=O)O	-11%	·	·	·	·	0%	-9%	-6%
Cc1onc(-c2c(Cl)cccc2Cl)c1C(=O)NCCc1ccc(S(N)(=O)=O)cc1	?	0%	-4%	5.6%	-2%	-3%	-9%	7%
COc1ccccc1CC(=O)Nc1cccc(C(=O)NN2C(=O)c3ccccc3C2=O)c1	-1%	-1%	-5%	-0.5%	20%	0%	-25%	-1%
Cc1ccc(-c2cc(=O)c3cc(Cl)ccc3[nH]2)cc1	·	3%	7%	0.5%	-1%	·	·	·
O=C(Nc1nc(-c2ccc3ccccc3c2)cs1)c1ccc(N2C(=O)CCC2=O)cc1	0%	17%	?	-0.1%	0%	-1%	?	5%
Cc1cnc(CNC(=O)C2CCC(=O)N(Cc3ccc(Cl)cc3)C2)[nH]1 (stereo not drawn)	?	2%	·	·	28%	6%	-1%	12%
CN1CCN(C(=O)/C=C\c2ccc(Cl)cc2)CC1	?	6%	-10%	-4.1%	0%	-8%	11%	?
COc1ccccc1CNC(=O)C1CCN(S(=O)(=O)c2cccc([N+](=O)[O-])c2)CC1	-2%[46.1 µM]	-12%	·	·	0%	21%	-3%	·
CCCCNC(=O)c1ccc2c(c1)ncn2C1CCCC1	13%	-4%	11%	3.9%	13%	-4%	53%[activator]	-12%
COc1ccc(CCNC(=O)C(=O)NCC2OCCN2S(=O)(=O)c2ccc(Cl)cc2)cc1 (stereo not drawn)	·	10%	·	·	1%	-1%	?	·
COc1ccccc1OCCCN1C(=O)C(=O)c2cccc(C)c21	·	-10%	·	·	-5%	-10%	7%	·
O=C(CSc1nc(-c2ccco2)nc2cc(=O)[nH]n12)Nc1ccc(F)cc1	·	·	?	-5.3%	·	·	-23%	-23%[46.1 µM]
Cc1[nH]c2ccccc2c1Cc1nnc(SCc2ccccc2)o1	·	-50%	-3%	-7.1%	-23%	4%	14%	·
CCC(C)NC(=O)c1oc2ccc(S(=O)(=O)N3CCC4(CC3)OCCO4)cc2c1C (stereo not drawn)	10%[46.1 µM]	-1%	·	·	-1%	-3%	-28%	·
Cc1ccc(S(=O)(=O)Nc2ccc3c(c2)nc2n3CCN(Cc3ccccc3)C2)cc1	?	?	?	0.5%	-5%	17%	-1%	?
N#Cc1c(NC(=O)CN2C(=O)c3ccccc3C2=O)oc(-c2ccccc2)c1-c1ccccc1	16%	·	·	·	·	6%	8%	5%
COc1ccc(CCNc2nc(C)cc(C)n2)cc1OC	1%[46.1 µM]	-18%	·	·	-6%	-24%	-22%	?
O=C(CSc1ncnc2nc[nH]c12)Nc1ccc(Br)cc1Cl	·	6%	·	·	-2%	11%	21%	·
CCN(CC)S(=O)(=O)c1cc(C(=O)Nc2cc(C)[nH]n2)ccc1Cl	·	0%	·	·	-2%	-8%	53%[activator]	·
Cc1cccc(NC(=O)CSc2nnc(-c3ccco3)o2)c1C	-1%	-14%	0%	-3.1%	0%	3%	13%	9%
CCCNC(=S)Nc1ccc(Oc2ccccc2)cc1	-13%	-108%	2%	-4.6%	-10%	-8%	32%[activator]	0%
Cc1ccc(C)c(CSC2=NCCN2C(=O)c2cccs2)c1	-9%	·	·	·	4%	-7%	5%	6%
O=C(CSc1nc2c(c(=O)[nH]1)CN(Cc1ccc3c(c1)OCO3)CC2)Nc1ccc(F)cc1	17%[46.1 µM]	·	-7%	-2.6%	·	·	-21%	-5%[46.1 µM]
Cc1cc(NC(=O)CCC(=O)N(Cc2ccccc2)C2(C(=O)NC3CCCCC3)CCCC2)no1	?	1%	·	·	1%	-8%	-5%	?
N#CCCn1cc(C(=O)Nc2ccc(C(=O)O)cc2)c(-c2cccc(Br)c2)n1	13%	12%	·	·	1%	-9%	-13%	13%
CCC(=C(c1ccc(OC)cc1)c1ccc(OC)cc1)c1cn(CC(O)CN(CCO)CCO)c2ccccc12 (stereo not drawn)	?	·	·	·	3%	25%	-8%	?
COc1ccccc1CCNC(=O)C(=O)Nc1cc2c3c(c1)CC(=O)N3CCC2	11%	·	·	·	3%	4%	-9%	1%
CC(=O)Nc1ccc(S(=O)(=O)Nc2ccc(Cc3ccncc3)cc2)cc1	?	1%	·	·	1%	2%	-12%	?
CCC(CC)COC(=O)C1=C(C)NC(=O)NC1c1ccc(N(C)C)cc1 (stereo not drawn)	·	10%	·	·	-10%	6%	?	·
Cc1c(C(=O)NCc2ccccc2Cl)sc2nc3n(c(=O)c12)CCCCC3	·	·	-24%	-4.5%	·	·	25%	?
O=C(c1ccco1)N1CCN(C(c2ccc(F)cc2)c2nnnn2Cc2cccs2)CC1 (stereo not drawn)	5%[46.1 µM]	-7%	17%	3.0%	0%	0%	-1%	-13%
Cc1ccc(C(=O)Nc2cccc(C(F)(F)F)c2)cc1Nc1cnccn1	·	-3%	·	·	-5%	2%	-24%	·
COc1cc2c(cc1NC(=O)CSc1ccc(C)cc1)oc1ccccc12	?	2%	-29%	2.8%	9%	-4%	0%	2%
O=C(Nc1cccc(Cl)c1)C(Cc1ccccc1)n1cccc1 (stereo not drawn)	?	·	-10%	-11%	·	·	-6%	·
COC(=NC(C)C)NC(C)C	0%[46.1 µM]	-1%	·	·	-1%	6%	-6%	-10%[46.1 µM]
Fc1ccc(CSc2ccc(-c3ccco3)nn2)cc1	-1%	7%	-2%	-1.6%	17%	-17%	40%[activator]	-13%
CC(=O)c1cccc(OCC(O)CNCC2COc3ccccc3O2)c1 (stereo not drawn)	-1%[46.1 µM]	-3%	·	·	1%	-1%	10%	-9%
Cc1ccc(C(=O)N2CCC(N3CCC(C(=O)N4CCOCC4)CC3)CC2)cc1C	-8%	23%	·	·	1%	4%	-6%	-1%
COc1ccccc1NC(=O)c1ccc(S(=O)(=O)N(C)C)cc1	·	-10%	-7%	0.8%	-7%	3%	5%	·
Cc1ccc(N(NC(=O)C(O)(c2ccccc2)c2ccccc2)C(=O)CCl)cc1	13µM*	-7%	7%	-15%	-15%	8%	8.9µM*	?
CN1C(=O)C(=Cc2ccc(Sc3ccccc3)o2)C(=O)N(C)C1=O	1%[46.1 µM]	3%	·	·	-1%	0%	-4%	28%
COc1ccc(NC(=O)c2ccc(NC(=O)C3COc4ccccc4O3)cc2)c(OC)c1 (stereo not drawn)	24%[46.1 µM]	·	·	·	·	10%	8%	1%
Cc1cc(C)cc(OCC(=O)NNC(=O)c2cc3ccccc3oc2=O)c1	36%	12%	-3%	3.7%	?	-2%	12%	20%

Later entries
structure	MARV entry inh	NS1 function inh	Cruzain inh noDet	Cruzain inh Det	SARS PLpro yeast	RE007 growth inh	2A StopGo	Lassa entry inh
Cc1cc(C=C2C(=O)N(C)C(=S)N(C)C2=O)c(C)n1C1CCCCC1	-14%	4%	-15%	-11%	4%	-4%	12%	-7%
CCNc1nc(NC(C)C)nc(N(C#N)C(C)C(=O)N(CC)CC)n1 (stereo not drawn)	·	0%	·	·	0%	10%	-14%	·
O=C(c1cnccn1)N(Cc1cccs1)C1(C(=O)NC2CCCCC2)CCCCC1	9%	-1%	-3%	5.3%	1%	74%	11%	?
Nn1c(SCC(=O)Nc2ccccc2C(F)(F)F)nncc1=O	-17%[46.1 µM]	3%	·	·	19%	-1%	-6%	-5%[46.1 µM]
Cc1c(C(=O)NC(=S)Nc2ccccc2N2CCCC2)cccc1[N+](=O)[O-]	-32%	23%	?	-8.6%	7.1µM*	7%	?	0%

From PubChem BioAssay
